2A StopGo: High Throughput Screening for Foot and Mouth Disease Virus Antivirals; Potency, µM (titrated, usually from 57.9 µM), for the others: top-dose signal change, negative = less light; human cells with a luciferase reporter of 2A StopGo recoding; control for the full effect not named in the record; actives 1.2% (n = 410,000); active = well fitted falling curve with a large enough effect; inconclusive = small, poorly fitted or top-dose-only effect; inactive = no such curve, though single readings can be large or run the other way; tested in HEK293T cells; note: % is set by controls: 0 for no effect and ±100 for the full control effect; nearly all actives have a fitted effect of over 45% in size; luciferase light after 4 h
RE007 growth inh: qHTS Assay for Inhibitors of the HIV-1 protein Vpr; S. pombe RE007 Vpr strain, BacTiter-Glo ATP luminescence, 24 h; control for the full effect not named in the record; Potency, µM (highest dose often 92.2 µM), inactives show at the top dose activity change, negative = less growth; actives 0.21% (n = 360,000); active = well fitted falling curve with a large enough effect; inconclusive = small, poorly fitted or top-dose-only effect; inactive = no such curve, though single readings can be large or run the other way;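 note: % is set by controls: 0 for no effect and ±100 for the full control effect; nearly all actives have a fitted effect of over 50% in size; the assay follows cell death caused by Vpr and the record does not say whether a fall means rescue or toxicity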
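Fission yeast RE007 carrying one integrated HIV-1 vpr copy, seeded at OD 0.01 in PMG+AL medium with 23 nL pinned compound. Grown 24 h at 30 degrees; viability read by BacTiter-Glo luminescence after 5 min.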
SARS PLP yeast: qHTS of Yeast-based Assay for SARS-CoV PLP; S. cerevisiae expressing SARS-CoV PLpro, growth rescue; control for the full effect not named in the record; Potency, µM (series often up to 32.9 µM), for inactives: at the highest dose activity, positive = growth rescue; actives 0.19% (n = 330,000); active means well fitted rising curve with a large enough effect; inconclusive means small, poorly fitted or top-dose-only effect; inactive means no such curve, though single readings can be large or run the other way; note: 0% is about no effect; nearly all actives have a fitted effect of over 55% in size; growth read by luminescence after 48 h
NS1 inh: qHTS Assay for Inhibitors of Influenza NS1 Protein Function | S. cerevisiae slowed by influenza A NS1, growth recovery by OD600 | Potency, µM (highest dose often 46.1 µM), for the others: at the highest dose activity, positive = more growth | actives 0.4% (n = 270,000) | AID 2326, 2010; active means well fitted rising curve with a large enough effect; inconclusive means small, poorly fitted or top-dose-only effect; inactive means no such curve, though single readings can be large or run the other way; note: nearly all actives have a fitted effect of over 50% in size
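Recovery from NS1-induced slow growth read by OD600 in budding yeast switched to galactose assay medium (pH 6.0, -URA) at 1:100 dilution. Compound 23 nl per well; the matching strain lacking NS1 serves as control.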
Cruzain noTriton: qHTS Assay for Promiscuous and Specific Inhibitors of Cruzain (without detergent). Cruzipain (Trypanosoma cruzi), P25779. purified cruzain, Z-FR-AMC fluorescence, no detergent. Potency, µM, without a hit: max response, negative = inhibition, hits mostly inhibitors. actives 2.3% (n = 200,000);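 note: plate controls were enzyme without inhibitor for no effect and buffer without enzyme for full effect; nearly all actives have a fitted effect of over 40% in size; top concentration of the series not given in the record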
Target sequence (P25779 123-467 limits assumed): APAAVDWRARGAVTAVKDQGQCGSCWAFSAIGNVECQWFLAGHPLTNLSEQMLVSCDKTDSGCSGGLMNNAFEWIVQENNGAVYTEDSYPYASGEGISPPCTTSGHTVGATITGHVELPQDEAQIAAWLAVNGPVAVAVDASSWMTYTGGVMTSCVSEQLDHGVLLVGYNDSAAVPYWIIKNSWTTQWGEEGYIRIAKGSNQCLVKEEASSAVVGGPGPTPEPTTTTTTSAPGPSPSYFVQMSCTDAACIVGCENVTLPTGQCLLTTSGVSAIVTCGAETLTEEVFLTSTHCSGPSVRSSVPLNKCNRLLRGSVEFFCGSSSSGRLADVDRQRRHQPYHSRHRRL
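Detergent-free condition (0.00005% Triton X-100) in acetate buffer pH 5.5 with DTT. 1.5 nM enzyme and compound were pre-mixed 15 min, then 2 uM Z-FR-AMC substrate added; reaction progress from fluorescence change between first and third reads (60 s).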
Lassa entry inh: qHTS for Inhibitors of binding or entry into cells for Lassa Virus. Lassa virus pseudotype entry inhibition, cell reporter; control for the full effect not named in the record. Potency, µM (top dose mostly 37.9 µM), for inactives: at the highest dose activity change, negative = inhibition, most hits filed as inhibitors. actives 1.2% (n = 300,000). AID 540256, 2011; active means well fitted inhibition curve with a large enough effect; inconclusive means small, poorly fitted or top-dose-only effect, or effect the other way; inactive means flat fitted curve, though single readings scatter; tested in HEK293 cells; note: % is set by controls: 0 for no effect and ±100 for the full control effect; nearly all actives have a fitted effect of over 50% in size; luciferase read-out
Cruzain inh Det: qHTS Assay for Promiscuous and Specific Inhibitors of Cruzain (with detergent). Cruzipain (Trypanosoma cruzi), P25779. purified cruzain, Z-FR-AMC fluorescence, 0.01% Triton. Potency, µM, without a hit: max response, negative = inhibition, actives largely listed as inhibitors. actives 0.43% (n = 200,000);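 note: plate controls were neutral wells for no effect and buffer without enzyme for full effect; nearly all actives have a fitted effect of over 40% in size; top concentration of the series not given in the record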
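Cruzain (1.5 nM) preincubated 15 min at RT with compound in 100 mM sodium acetate pH 5.5, 5 mM DTT, 0.01% Triton X-100. Reaction started with 2 uM Z-FR-AMC; AMC fluorescence (ex 360/em 450 nm) change over 60 s gave rate.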
MARV entry inh: qHTS for inhibitors of binding or entry into cells for Marburg Virus | Marburg virus pseudotyped entry inhibition, cell reporter; control for the full effect not named in the record; about a third of the inactives were read at about 46 µM | Potency, µM (highest dose often 37.8 µM), for inactives: top-dose activity change, negative = inhibition, usual class: inhibitors | actives 1.8% (n = 300,000) | AID 540276, 2011; active = well fitted inhibition curve with a large enough effect; inconclusive = small, poorly fitted or top-dose-only effect, or effect the other way; inactive = flat fitted curve, though single readings scatter; tested in HEK293 cells; about a fifth of its hits are not listed in these tables; note: % is set by controls: 0 for no effect and ±100 for the full control effect; luciferase read-out
Starred values were filed as active, the others as inactive; ? = inconclusive; nt = no result given; & = joins results of further samples; [ ] = remark or other dose. Unless noted, calls come from the whole dose curve; as a rule, active = well fitted curve in the direction sought with a large enough effect; inconclusive = small, poorly fitted or top-dose-only effect, or another doubt; inactive = no such curve, though single readings can be large; an effect the other way counts as inactive or inconclusive. Potency is the fitted concentration of half-maximal effect.

compound	2A StopGo	RE007 growth inh	SARS PLP yeast	NS1 inh	Cruzain noTriton	Lassa entry inh	Cruzain inh Det	MARV entry inh
O=C(N/N=C/c1ccc(N2CCOCC2)o1)c1cccc([N+](=O)[O-])c1	-22%	3%	16%	?	7%	1%	-8.6%	?
CCOc1ccccc1N(CC)C(=O)Cn1ncc2c(=O)oc3ccccc3c21	-1%	0%	4%	-18%	-11%	nt	-11%	nt
Cc1ccc(OCC(=O)N2CCN(Cc3ccc4c(c3)OCO4)CC2)cc1	?	4%	0%	nt	nt	?	nt	-5%[46.1 µM]
Cc1cc2occ(CC(=O)NC3=NCCS3)c2cc1C(C)C	17%	-1%	-7%	-10%	-8%	-15%	-2.3%	?
CCC(C(=O)NC(C)(C)C)N(C(=O)Cn1nnc(-c2ccccc2F)n1)c1cccc2c1CCCC2 (configuration not stated)	-10%	-3%	-9%	3%	1%	9%	-1.2%	?
CC(C)NC(=O)c1ccc(CSc2nc3ccncc3n2Cc2cccc(F)c2)cc1	-11%	nt	nt	nt	20%	-11%[46.1 µM]	-3.6%	?
COc1ccc2oc(-c3ccc(NC(=O)c4ccc(Cl)cc4Cl)cc3)nc2c1	?	nt	nt	nt	10%	-6%[46.1 µM]	-2.5%	nt
COC(=O)c1cc(Br)ccc1-c1ccc(/C=N/n2nnnc2N)o1	nt	4%	-4%	-1%	13µM*	?	-8.7%	?
N#Cc1c(Nc2ccccc2)sc(C(=O)c2ccccc2)c1N	-9%	6%	-9%	?	-7%	-26%	-11%	1%
CCCN1C2CCCC1CC(NC(=O)NC13CC4CC(CC(C4)C1)C3)C2 (configuration not stated)	-2%	-25%	1%	1%	nt	nt	nt	nt
Cc1cc(NC(=O)CN2CCN(c3ccc(O)cc3)CC2)no1	-20%	-5%	0%	7%	-8%	-2%	-0.7%	8%
O=Cc1c(OCc2ccccc2)ccc2ccccc12	29%	1%	-4%	-75%	nt	-4%	nt	?
Cc1c(OC(C)C(=O)N2C[C@H]3C[C@@H](C2)c2cccc(=O)n2C3)ccc2c3c(c(=O)oc12)CCC3 (some centres not stated)	2%	-2%	-15%	-10%	nt	nt	nt	nt
COc1ccccc1N1CCN(C(=O)c2sc3nc(C)nc(N4CCN(c5ccccn5)CC4)c3c2C)CC1	?	-9%	-11%	-19%	nt	?	nt	?
CCC1CN(C(=O)N2CCC(C(=O)NCCc3cc(OC)ccc3OC)CC2)c2ccccc2O1 (configuration not stated)	?	nt	nt	nt	-24%	?	-7.0%	nt
COc1ccc2cc3[n+](cc2c1OC)CCc1cc2c(cc1-3)OCO2	?	?	-4%	-2%	-11%&-25%&3%&-16%&-15%	?	-2.5%&-20%&-10%&-15%&-6.1%	?
CN(C)C(CNC(=O)c1ccccc1OCc1ccc(Cl)cc1)c1ccco1 (configuration not stated)	-29%	2%	-6%	nt	nt	?	nt	?
Cn1c(Oc2ccc(F)cc2)c(C=O)c2ccccc21	?	-13%	-6%	nt	nt	9%[46.1 µM]	nt	?
CCOc1ccccc1NC(=O)CCn1cnnn1	-4%	nt	nt	nt	-8%	9%[46.1 µM]	2.1%	nt
CC(=O)c1sc2c(c1OC(=O)c1ccc(Cl)cc1)c(=O)n(-c1ccccc1)c(=S)n2-c1ccccc1	-23%	-21%	nt	nt	nt	4%	nt	4%
O=[N+]([O-])c1ccccc1N/N=C/c1ccccc1	63%	0%	-3%	19%	nt	nt	nt	nt
CCOc1cc(-c2noc(N)c2C#N)cc(OCC)c1OCC	?	0%	4%	7%	4%	2%	-6.2%	17%
CCCc1cc(=O)oc2cc(C)cc(OCC(=O)NCCN3CCOCC3)c12	-17%	-7%	-7%	-2%	nt	nt	nt	nt
CCCCN(C)C(=S)Nc1ccc(Oc2ccccc2)cc1	15%	-3%	-53%	-9%	-3%	15%	-5.0%	?
O=C(Nc1ccc(Cl)cc1)Nc1nnc(CSCc2ccccc2)s1	0%	1%	-3%	6%	?	24%	2.0%	6%

More results follow:
compound	2A StopGo	RE007 growth inh	SARS PLP yeast	NS1 inh	Cruzain noTriton	Lassa entry inh	Cruzain inh Det	MARV entry inh
CNS(=O)(=O)c1cn(CC(=O)Nc2ccc(F)cc2F)cc1S(=O)(=O)NC	21%	nt	nt	nt	1%	3%[46.1 µM]	-2.3%	nt
Cc1ccccc1NC(=O)CCCCCN1C(=O)[C@@H]2Cc3ccccc3CN2C1=O	?	-1%	-1%	-16%	nt	nt	nt	nt
COc1ccc(-c2[nH]ncc2CNC(C)CCn2cccn2)cc1F (configuration not stated)	-21%	-4%	-1%	3%	nt	5%[46.1 µM]	nt	2%[46.1 µM]
Cc1nnc(Nc2ccc(F)cc2)c2ccccc12	13%	-1%	0%	0%	nt	18%	nt	9%
CCn1cc(C(=O)N(C)Cc2ccccc2)c(=O)c2cc(S(=O)(=O)N3CCCCC3)ccc21	-23%	nt	nt	nt	25%	-3%[46.1 µM]	-4.8%	10%[46.1 µM]
CCS(=O)(=O)Nc1cccc(C2=NN(C(=O)c3ccco3)C(c3ccco3)C2)c1 (configuration not stated)	-1%	-3%	-2%	5%	nt	?	nt	?
CCCN(c1ccccc1F)S(=O)(=O)c1cc(-c2cc(C)no2)ccc1C	-25%	nt	nt	nt	-17%	?	-5.7%	nt
O=C(Nc1ccc(F)cc1F)c1cc(-c2ccco2)nc2ccccc12	-2%	-16%	0%	4%	nt	3%	nt	-26%[46.1 µM]
CC(C)[C@@H](COc1ccccc1)N1CCN(Cc2ccccc2)CCC1=O	-13%	8%	0%	-9%	nt	nt	nt	nt
Oc1c(C(c2ccc(Cl)cc2Cl)N2CCCC2)sc2nc(-c3ccco3)nn12 (configuration not stated)	22%	nt	nt	nt	-16%	26%[46.1 µM]	-1.8%	nt
COC(=O)c1ccccc1NC(=O)CSc1nc(O)cc(=O)n1C1CCCC1	-17%	3%	11%	?	?	15%	-1.6%	-13%
CSc1nsc(SCC(=O)Nc2cccc(NC(C)=O)c2)n1	9%	-1%	-1%	9%	nt	11%	nt	?
O=[N+]([O-])c1ccc(-c2ccc(/C=N/c3c(-c4ccco4)nc4ccccn34)o2)c(Cl)c1	nt	nt	-23%	-21%	3%	nt	-1.1%	1%
O=C(Cc1ccccc1)Nc1nc(-c2cccs2)cs1	4%	-15%	-9%	-17%	-6%	?	-2.5%	?
CCN=C1SC(C(=O)NCCc2ccccc2)CC(=O)N1CC (configuration not stated)	4%	3%	-22%	5%	1%	?	-3.9%	12%[46.1 µM]
CCS(=O)(=O)n1nc(-c2cccnc2)nc1NCc1ccc(F)cc1	-3%	15%	-1%	nt	nt	-6%[46.1 µM]	nt	?
Nc1nnc(CC(=O)N/N=C/c2ccc(-c3cccc(C(=O)O)c3)o2)s1	26%	8%	1%	3%	nt	7%	nt	3%
Cc1ccc(NC(=O)c2c([N+](=O)[O-])c(C(C)(C)C)nn2C)c(C)c1	19%	11%	2%	-10%	8%	0%	-4.6%	?
Cc1cc(CNC(=O)CC2C(=O)NCCN2CC(C)(C)C)nn1C (configuration not stated)	0%	8%	-1%	3%	nt	nt	nt	nt
C/C(=N\NC(N)=S)C1=CCC2C3CC[C@H]4CC(O)CC[C@]4(C)C3CC[C@]12C (some centres not stated)	?	8%	-2%	-2%	nt	nt	nt	nt
CC(=NNC(=O)c1ccncc1)c1ccc(Cl)cc1Cl	3%	5%	nt	nt	nt	11%[46.1 µM]	nt	-24%[46.1 µM]
Cc1nnc2sc(SCc3ccccc3)nn2c1=O	nt	nt	-28%	1%	7%	4%	3.1%	-15%
Cc1ccc(NC(=O)C2CCCN(S(=O)(=O)c3ccc4[nH]c(=O)ccc4c3)C2)nc1 (configuration not stated)	-7%	5%	11%	-4%	nt	18%[46.1 µM]	nt	-2%[46.1 µM]
CCCCOc1ccc(C(=O)N2CCNC(=O)C2)cc1	3%	9%	-1%	7%	nt	-2%[46.1 µM]	nt	19%[46.1 µM]
CCOc1ccc(NC(=O)C(=O)NCCc2sc(-c3ccc(C)cc3)nc2C)cc1	-17%	nt	nt	nt	1%	3%[46.1 µM]	0.8%	nt

Carrying on.
compound	2A StopGo	RE007 growth inh	SARS PLP yeast	NS1 inh	Cruzain noTriton	Lassa entry inh	Cruzain inh Det	MARV entry inh
CCn1cc(NC(=O)Nc2ccc(OC)c(OC)c2)c(C(N)=O)n1	-10%	-7%	?	-2%	-8%	-28%	-0.2%	-9%
CCOC(=O)Cn1nc(C)n(-c2ccc(C(C)(C)C)cc2)c1=O	-15%	25%	-4%	1%	-4%	-27%	4.7%	0%
CCCCN(C)CCn1c(=S)[nH]c2ncccc2c1=O	18%	5%	3%	5%	1%	-11%	-4.6%	13%
Cc1[nH]nc2ncc(C(=O)c3cc(Cl)cc(Cl)c3O)cc12	9%	2%	2%	2%	?	0%	-3.1%	-11%
CCCNC(=O)N1[C@H](c2cccs2)[C@@H](C)C(=O)[C@@H](C)[C@@H]1c1cccs1	-2%	nt	nt	nt	11%	-7%[46.1 µM]	-5.5%	2%[46.1 µM]
Cc1ccc(C(=O)CSc2nnc(Cn3nnc4ccccc43)n2C)cc1	nt	1%	6%	-3%	-6%	-3%	-1.3%	8%
O=c1c2sc3ccccc3c2n(Cc2ccccc2F)c(=O)n1-c1ccccc1Cl	-26%	nt	nt	nt	2%	2%[46.1 µM]	-1.5%	?
COc1ccc(Cl)cc1NC(=O)c1cc2ccc3ccc(C)[nH]c3c2n1	2%	nt	nt	nt	?	2%[46.1 µM]	-3.2%	nt

Screens: PubChem, National Center for Advancing Translational Sciences (NCATS)
